NPYLR7 ag: activates Aedes aegypti NPYLR7 receptor; HEK293T NPYLR7/Galpha15, GCaMP6s calcium fluorescence; activation, % at 10 µM; 0.15% of 270,000 active; AID 1259423; in the data active = activation above about 40%;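 note: 0% = vehicle and 100% = reference agonist at the receptor; some compounds past the cut are filed as inactive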
NPYLR7 ag max-min: recorded beside NPYLR7 ag, whose call it bears; activation, %; measured here: Max-Min RFU normalised activation; some inactives read as strong as hits;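 span of the calcium signal over five minutes; 0% = vehicle and 100% = native peptide agonist; compound fluorescence can raise it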
An asterisk follows results filed as active; & = joins results of further samples.

SMILES	NPYLR7 ag	NPYLR7 ag max-min
CCc1nc2c(OCc3ccc(F)c(F)c3)cccn2c1N(C)C(=O)c1ccc(C)cc1	-15	4
Cc1nc(CCN)cc(N2CCS(=O)(=O)CC2)n1	11	-5
CCN(C=NC1=NN(c2cccc(C(F)(F)F)c2)CC1)CC	-6	-7
COc1ccc(C(=O)N2CCCC2)c(OC2CCN(C(=O)C3CCCO3)CC2)c1 (stereo not given)	8	8
Cc1nn(C)c(C)c1NC(=O)Cc1ccc2c(c1)CCC2	3	1
COCCOc1ccc(S(=O)(=O)Nc2n[nH]c(C)n2)cc1	-5	-6
O=C1CC(C(=O)N2CCCC2c2ccncc2)CN1c1cccc(Br)c1 (stereo not given)	5	4
Cc1ccccc1OCCN(C)C(=O)c1ccc(-c2ccccc2)[nH]c1=O	2	-5
Cc1nnc(-c2cc3ccccc3n2CC(=O)Nc2ccc(F)cc2F)o1	7	6
O=c1nc(SCc2ccccn2)c2c(n1Cc1ccccn1)CCC2	-5	-7
O=C(c1cc(COc2cccc3cccnc23)on1)N1CC2C[C@@H]3CC1C[C@H](C2)C3	-2	-4
Cc1ccc(C(=O)N(CC(=O)Nc2nc(CC(=O)O)cs2)C(C)C)cc1	-4	-15
Cc1nc2c(-c3ccccc3)c(C)nn2c(SCC(N)=O)c1Cc1ccccc1	-1	-5
COC(=O)CCCCCCC(=O)N1CCN(Cc2cc(=O)c(OCc3ccc(F)cc3)co2)CC1	10	9
Cc1ccc(-n2c(CNC(=O)c3ccccc3Cl)nnc2SCc2ccc(F)cc2)cc1	6	6
CC(C)CNC(=O)c1ccc2c(=O)n(C(C)C)c3nn(Cc4cccc(Cl)c4)c(=O)n3c2c1	2	-1
CCOCCn1cc(C2CCN(C(=O)c3sc(Cl)c(Cl)c3Cl)CC2)c2ccccc21	6	7
NC(=O)CCc1nnc(SCc2ccc(F)cc2Cl)n1C1CC1	11	4
Cc1cc2c(SCC(=O)N3CCc4c(nc[nH]c4=O)C3)ncnc2s1	6	3
O=C(OCC12CC3CC(CC(C3)C1)C2)c1cccc([N+](=O)[O-])c1	-7	-13

Molecules listed so far with sulfur:
SMILES	NPYLR7 ag	NPYLR7 ag max-min
Cc1nc(CCN)cc(N2CCS(=O)(=O)CC2)n1	11	-5
COCCOc1ccc(S(=O)(=O)Nc2n[nH]c(C)n2)cc1	-5	-6
O=c1nc(SCc2ccccn2)c2c(n1Cc1ccccn1)CCC2	-5	-7
Cc1ccc(C(=O)N(CC(=O)Nc2nc(CC(=O)O)cs2)C(C)C)cc1	-4	-15
Cc1nc2c(-c3ccccc3)c(C)nn2c(SCC(N)=O)c1Cc1ccccc1	-1	-5
Cc1ccc(-n2c(CNC(=O)c3ccccc3Cl)nnc2SCc2ccc(F)cc2)cc1	6	6
CCOCCn1cc(C2CCN(C(=O)c3sc(Cl)c(Cl)c3Cl)CC2)c2ccccc21	6	7
NC(=O)CCc1nnc(SCc2ccc(F)cc2Cl)n1C1CC1	11	4
Cc1cc2c(SCC(=O)N3CCc4c(nc[nH]c4=O)C3)ncnc2s1	6	3

(next part)
SMILES	NPYLR7 ag	NPYLR7 ag max-min
CS(=O)(=O)N1CCCc2cc(C(=O)NCc3ccc(CN4CCCC4)cc3)ccc21	7	11
Cc1ccc(CNC(=O)Nc2ccc3c(c2)CCO3)cc1F	4	2
CCn1c(C2CCCN(Cc3ccccc3Cn3cccn3)C2)n[nH]c1=O (stereo not given)	3	2
CCOC(=O)N1CCN(c2cc(C(C)C)nc(C)n2)CC1	-1	10
O=C(Cn1c(CO)cnc1SCc1ccccc1F)NC1CC1	8	2
O=C(COC(=O)CCNS(=O)(=O)c1ccc2ccccc2c1)Nc1ccc(N2CCOCC2)cc1	9	7
COc1ccc(C2(CC(=O)N3CCN(c4ccc(Cl)cc4)CC3)CC(=O)N(C)C2=O)cc1 (stereo not given)	19	6
COc1nc(-c2ccccc2C)n(-c2ccc(NC(=O)c3ccc(C)c([N+](=O)[O-])c3)cc2)n1	15	13
N#CC(=Cc1cn(-c2ccccc2)nc1-c1cc2ccccc2o1)C(N)=S	0	-2
COc1cc(/C=C2/SC(=S)N(CC(=O)O)C2=O)ccc1OCc1ccccc1[N+](=O)[O-]	-5	5
CN(CC(O)c1ccccc1)C(=O)CCc1nnc(Cc2cccc(C(F)(F)F)c2)o1 (stereo not given)	1	-2
CC(C)c1nccn1C(C)C(=O)N1CCC2(CCCO2)CC1 (stereo not given)	9	5
COCC1(C(=O)NC23CC4CC(CC(O)(C4)C2)C3)CCC1	6	3
Cc1cccc(-n2c(SCc3cccc(C#N)c3)nnc2-c2ccc(F)cc2)c1	-6	-9
CC(C)c1ccc(NC(=O)c2cc(Cl)[nH]c(=O)n2)cc1	-1	0
Cc1ccc(OC(C)C(=O)NN2C(=O)C3C4CCC(O4)C3C2=O)cc1C (stereo not given)	2	5
CC(C)C(NC(=O)CC1(C(=O)O)CCCC1)c1ccc(F)cc1 (stereo not given)	-3	-5
CCn1ncnc1CN(Cc1ccncc1)Cc1ccc(F)cc1	5	2
CCCc1noc(CN2CCc3[nH]cnc3C2c2ccccn2)n1 (stereo not given)	2	0
CCOC(=O)N1CCN(c2nc(C)c3c(n2)CC(C)CC3=O)CC1 (stereo not given)	6	6

Part of the list above, set out differently.
Below each compound: NPYLR7 ag | NPYLR7 ag max-min
- COC(=O)CCCCCCC(=O)N1CCN(Cc2cc(=O)c(OCc3ccc(F)cc3)co2)CC1
 : 10 | 9
- Cc1ccc(-n2c(CNC(=O)c3ccccc3Cl)nnc2SCc2ccc(F)cc2)cc1
 : 6 | 6
- CC(C)CNC(=O)c1ccc2c(=O)n(C(C)C)c3nn(Cc4cccc(Cl)c4)c(=O)n3c2c1
 : 2 | -1
- CCOCCn1cc(C2CCN(C(=O)c3sc(Cl)c(Cl)c3Cl)CC2)c2ccccc21
 : 6 | 7
- NC(=O)CCc1nnc(SCc2ccc(F)cc2Cl)n1C1CC1
 : 11 | 4
- Cc1cc2c(SCC(=O)N3CCc4c(nc[nH]c4=O)C3)ncnc2s1
 : 6 | 3
- O=C(OCC12CC3CC(CC(C3)C1)C2)c1cccc([N+](=O)[O-])c1
 : -7 | -13

Continuation:
SMILES	NPYLR7 ag	NPYLR7 ag max-min
CNc1ccnc(N2CCN(CCc3ccccc3)CC2)n1	2	1
COc1ccc(-c2nc3ccccn3c2NC(=O)c2cccc(OC)c2)cc1	-3	3
COCCCNC(=O)C(NC(=O)c1ccccc1C)C1CCN(C(=O)C2CCCC2)CC1 (stereo not given)	18	25
COc1ccc(C(=O)Nc2ccc(C(C)=O)cc2)cc1[N+](=O)[O-]	-2	-1
N#Cc1cnc2ccc(OC(F)F)cc2c1N1CCc2sccc2C1	-1	-3
Cc1ccc(C(=O)N2CCN(Cc3ccc(-c4noc(-c5ccco5)n4)cc3)CC2)c(Cl)n1	9	13
CCCCc1ccc(NC(=O)c2sc3cc4c(cc3c2Cl)OCO4)cc1	3	2
CCC(C)N(Cc1cccc(OS(=O)(=O)c2ccc(F)cc2)c1)C(=O)C12CC3CC(CC(C3)C1)C2 (stereo not given)	-1	2
O=C(CNC(=O)C1CC1(c1ccccc1)c1ccccc1)NC(c1ccccc1)c1ccccn1 (stereo not given)	3	5
COc1ccc(OC)c(NC(=O)N2CCC[C@H]2C(=O)OCCc2ccc(OC)c(OC)c2)c1	-3	-5
O=C(O)c1ccccc1N=Cc1nc(/C=C/c2cccc([N+](=O)[O-])c2)oc1O	1	6
COc1ccc(N(C)S(=O)(=O)c2ccc(OC)c(N3CCN(S(=O)(=O)c4cc(OC)ccc4OC)CC3)c2)cc1	27	21
C/C=C(\C)CN1CCC(CCC(=O)Nc2ccc3c(c2)OCCO3)CC1	3	1
Cc1nc(SCCn2c(C)csc2=O)c(C(N)=O)c(C)c1C	14	11
Cc1ccn2c(C(=O)NCCn3c(C)cc(C)nc3=O)c(C)nc2c1	6	-4
CCOCCn1ccc2c(OCC(=O)N(C(C)C)C(C)C)cccc2c1=O	-1	18
Cc1cnccc1CN(C)C(=O)CCc1nnc(CCc2c[nH]c3ccccc23)o1	1	-1
COc1ccccc1Oc1cc(C(C)C)nc(SCc2cccc(C#N)c2)n1	1	2
OCC1N(Cc2ccc(F)cc2)C2CCC1(O)CC2 (stereo not given)	29	34
Cc1ccccc1C1Nc2ccccc2N=C2CC(c3ccccc3)CC(=O)C21 (stereo not given)	-8	-12

Entries of single compounds, looked up by structure. Order of values: NPYLR7 ag | NPYLR7 ag max-min
CN(CC(O)c1ccccc1)C(=O)CCc1nnc(Cc2cccc(C(F)(F)F)c2)o1 (stereo not given) reads 1 | -2
O=C1CC(C(=O)N2CCCC2c2ccncc2)CN1c1cccc(Br)c1 (stereo not given) reads 5 | 4

Carrying on.
SMILES	NPYLR7 ag	NPYLR7 ag max-min
COc1ccc(CCNC(=O)c2ccc(-c3cc(-c4cccc(C(F)(F)F)c4)n[nH]3)cc2)cc1OC	31	16
CCNC(=O)c1ccc(C)c(NCCCc2ccccc2)c1	11	9
CCC(C)(C)NS(=O)(=O)c1c(F)cc(F)cc1Br	-7	-7
CCc1c(C)nn(-c2ccc(C(=O)NC(Cc3ccccc3)C(=O)OC)cc2)c1C (stereo not given)	-7	-12
Cc1cc(NC(=O)C(C)(C)CCl)n(-c2nc(C)c(C)c(=O)[nH]2)n1	8	0
CN(CCCc1cc(-c2ccc(F)cc2)n[nH]1)C(=O)C1=NN(c2ccccc2)C(C(N)=O)C1 (stereo not given)	0	2
Cc1ccccc1-n1nc(C)c(C(=O)O)c1C	-12	-7
Cn1cc(C(=O)N2CCN(C(=O)c3cc4ccccc4o3)CC2)c2nn(-c3ccccc3)c(=O)c-2c1	-1	-2
Cc1nc(NC(=O)CCN2C(=O)CCC2=O)nc2c1CCCC2	4	2
CCOCCCNC(=O)c1cc(NC(=O)Nc2ccc(OCC)cc2)ccc1N1CCCC1	15	11
CCCCn1c(N)c(N(C)C(=O)c2cc3cnn(C(C)C)c3nc2C)c(=O)[nH]c1=O	8	2
CCCCCOc1ccc(C(=O)NN(C)c2ccccc2)cc1OCCCCC	-8	-13
CC(C)(C)OC(=O)N1CCc2c(cnn2CC(=O)O)C1	12	6
Cc1cc(CN2CCN(c3ncccn3)CC2)cc(C)c1O	4	3
O=C(/C=C/c1cccs1)N(CCCN1CCOCC1)c1nc2ccc(F)cc2s1	0	-7
Cc1cc(NC(=O)CSCC(=O)OCc2cc(=O)n3ccsc3n2)no1	-1	8
CC(=O)Nc1ccnn1CC1=CCN(Cc2c(C)noc2C)CC1	4	2
C#CCn1c(=NC(=O)c2nn(C)cc2C)sc2cc(S(C)(=O)=O)ccc21	3	10
CN(C(=O)COc1ccc(Cl)cc1Cl)C1CCS(=O)(=O)C1 (stereo not given)	7	8
CC(C)(C)c1ccc(S(=O)(=O)c2cnc(SCC(=O)NCc3ccc(F)cc3)[nH]c2=O)cc1	-2	-6
Cc1cnn(C)c1NC(=O)c1cccc(CN2CCCCC2c2ccccn2)c1 (stereo not given)	7	2
O=C(OCc1nc(-c2ccccc2Cl)no1)c1cc(S(=O)(=O)N2CCCCC2)ccc1Cl	4	7
COC(=O)NC(=O)CN(C)C1CCC(c2ccccc2)CC1 (stereo not given)	7&3	8&1
O=C(O)COc1ccccc1/C=N\NC(=O)c1ccncc1	5	-5
C[C@H](NC(=O)C1(N2Cc3ccc(Nc4ccncc4)nc3C2=O)CC1)c1ccccc1	3	1
C=C(C)CNC(=O)CC1COc2ccc(C(=O)N3CCOCC3)cc2N1C (stereo not given)	4	-1
COc1ccccc1C(=O)N(Cc1ccco1)Cc1c(-c2cccc(C)c2)noc1N1CCOCC1	7	13
CCN1CCC(N2CCN(c3ccc(Cl)c(C(=O)O)n3)CC2)CC1	10	4
Cc1cccnc1NCCNC(=O)CC1C(=O)NCCN1C1CCCC1 (stereo not given)	1	-2
COc1ccc(CCN(C)C(=O)Nc2ccc(Cl)c(C(F)(F)F)c2)cc1OC	-8	-10
COc1cc(-c2nc(CN3CCCC3c3nc4ccccc4s3)c(C)o2)ccc1F (stereo not given)	-1	-1
CCOc1ccc(S(=O)(=O)c2cn(Cc3cccc(C)c3)c3ccc(OC)cc3c2=O)cc1	-5	-11
CCOC(=O)CCC(=O)N1CCC[C@H]1C(=O)N1CCC(C(=O)Nc2ccc(OC)cc2)CC1	23	28
COc1ccc(NS(=O)(=O)c2cc(C)ccc2C)cc1OC	-22	-24
COc1cccc(-c2cc(C(=O)NC3CCCCC3)n3nc(C(C)(C)C)cc3n2)c1	14	16
Cn1cc(C(=O)O)c2[nH]c(=O)n(-c3ccccc3)c(=O)c21	-3	-5
COc1cccc(-c2cnc(C(O)c3ccc(C)cc3)[nH]2)c1 (stereo not given)	4	1
CC(C)C(NC(=O)C1CCNCC1)c1nnc2n1CCNCC2 (stereo not given)	7	6
CN(C)C(C)(C(=O)Nc1cccc(CN2CCCCC2)c1)c1ccccc1 (stereo not given)	6	1
CCCCCc1ccc(S(=O)(=O)N2CCC(c3cn(CCOCC)c4ccccc34)CC2)cc1	2	2
COC(=O)c1c(NC(=O)Cn2nc(C)c([N+](=O)[O-])c2C)sc2c1CCC(C(C)(C)C)C2 (stereo not given)	-1	-2
CSc1nnc(SCC(=O)NCCC#N)s1	-1	17
COc1ccc(-c2ccc(OCCNC(=O)C3c4ccccc4Oc4ccccc43)nn2)cc1	1	1
Cc1ccccc1Cn1nc(C)c(NC(=O)c2nc3n(n2)C(C(F)F)CC(C)N3)c1C (stereo not given)	2	-8
CCc1ccc(C(=O)N2CCN(C(C(=O)NCc3cccc(F)c3)C3CCCC3)CC2)cc1 (stereo not given)	-6	26
CCCCN1CCN(C(=O)c2cn(CC3CCCO3)cc3c(=O)n(-c4ccccc4)nc2-3)CC1 (stereo not given)	-4	-7
CCOC(=O)c1c(C)n(C)c2c1cc(OC(=O)c1ccccc1Br)c1ccccc12	-6	1
Cc1[nH]cnc1-c1nccn1CCC1=CCCCC1	-3	-9

Screening data deposited in PubChem by Fisher Drug Discovery Resource Center.

A portion of the library; rates above refer to the full screens.
